Screens (PubChem BioAssay)
Ecoli growth = E. coli growth inhibition, primary screen, OD600 | Escherichia coli growth, 23 h; hits give low values | OD600 absorbance (concentration not given with the values) | 330,000 compounds, 0.21% hits;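 active means OD600 absorbance below the run mean of sample wells minus 3.6 SD, in any replicate, cut at about 0.56 in these data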;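 further: stock transfer was 300 nL into about 60 µL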
UCH37 DUB inh = inhibitors of human UCH37 deubiquitinase, primary screen, biochemical, Ub-AMC cleavage, fluorescence; 330,000 compounds, 0.33% hits; inhibition, % (no concentration beside the values); AID 588478, 2011; Ubiquitin carboxyl-terminal hydrolase isozyme L5 (Homo sapiens), Q9Y5K5; purified proteasome/UCH37;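 active means mean of two replicates above 20%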;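 further: 0% = compound-free wells with enzyme and 100% = wells lacking proteasome; stock transfer was 100 nL into about 20 µL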
Target sequence (Q9Y5K5 whole entry, looked up): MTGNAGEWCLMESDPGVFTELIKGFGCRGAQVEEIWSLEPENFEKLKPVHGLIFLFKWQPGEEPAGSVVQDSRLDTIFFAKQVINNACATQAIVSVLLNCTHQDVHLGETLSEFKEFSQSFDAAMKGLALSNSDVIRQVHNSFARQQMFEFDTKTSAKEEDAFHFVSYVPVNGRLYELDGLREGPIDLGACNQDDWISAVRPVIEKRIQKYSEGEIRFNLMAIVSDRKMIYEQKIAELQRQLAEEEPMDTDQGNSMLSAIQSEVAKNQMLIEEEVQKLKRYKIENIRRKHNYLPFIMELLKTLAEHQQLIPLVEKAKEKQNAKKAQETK
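assay system = human UCH37 enzyme supplied as purified proteasome complex | amount = proteasome at 0.15 nM in the dispensed enzyme solution | schedule = 30 min compound-proteasome preincubation then 25 min substrate reaction, room temperature | measured by = fluorescence, ex 355 nm, em 460 nm | benchmarks = no-proteasome wells (full inhibition) and compound-free wells (no inhibition)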
* marks the source's active call; other numbers are inactive results. Some of the compounds tested, so the mix of outcomes need not match the whole.

SMILES	Ecoli growth	UCH37 DUB inh
CSc1ccc(C=NS(=O)(=O)c2ccccc2)cc1	0.68	5.2
C=C(C)C1CC=C(C)C(=NNC(=O)CCCNc2cccc(C)c2)C1 (stereo unspecified)	0.68	1.7
COc1cc(Br)cc(C=NNC(=O)Cc2ccccc2)c1O	0.66	-0.4
CC(=NO)c1cc(Cl)cc(Cl)c1O	0.59	4.5
O=C(Cn1cncn1)NN=Cc1cccc2ccccc12	0.65	4.1
Cc1cccc(C=Nc2sc3c(c2C(=O)OC(C)(C)C)CCN(C)C3)c1O	0.62	5.8
COc1cc(C=NNC(=O)c2ccccn2)ccc1OC(=O)c1cccs1	0.64	1.7
O=C(NN=Cc1c[nH]c2ccccc12)C1CC(=O)N(c2ccccc2)C1 (stereo unspecified)	0.68	5.4
COC(=O)c1ccnc(C=NO)c1	0.69	0.9
COc1cc(C=NNC(=O)c2cccc([N+](=O)[O-])c2)ccc1O	0.67	8.0
CSc1ccc(C=NNc2ccc(Cl)c(C(=O)O)c2)cc1	0.71	7.1
Cc1cc(=O)[nH]c(NN=Cc2ccco2)n1	0.66	6.2
O=[N+]([O-])c1ccc(C=NNc2nc(N3CCCCC3)nc(N3CCCCC3)n2)o1	0.69	2.0
O=C1NCCCC1=NNc1ccc(Br)cc1	0.64	16
CC(=NNC(=O)c1ccoc1C)c1ccc(NC(=O)c2ccncc2)cc1	0.65	2.7
O=C(C=NO)NCC1CCNCC1	0.75	2.1
CCn1c2ccccc2c2cc(NC(=O)Nc3ccc([N+](=O)[O-])cc3C)ccc21	0.66	2.0
COC(=O)NN=Cc1ccc(OC(=O)c2ccco2)cc1	0.67	4.6
CCn1c(N=Cc2ccccc2O)nc2ccccc21	0.59	2.1
CC(c1ccccc1)n1c(NCCCn2ccnc2)nc2c1c(=O)[nH]c(=O)n2C (stereo unspecified)	0.68	5.7
COCCNC(=S)NN=C(C)c1ccc(Cl)s1	0.71	11
Cc1ccc(C(=O)NN=C/C=C/c2ccc(Br)cc2)cn1	0.66	3.6
NC(=O)NN=Cc1ccccc1OC(=O)c1cc2ccccc2oc1=O	0.68	-50
COc1ccc(C=NNC(=S)Nc2ccccc2)cc1COc1ccc(Br)cc1	0.73	10
COc1cccc(NC(=O)CC(C)=NNC(=O)c2ccccc2Cl)c1	0.65	2.0
O=C(CNC(=O)c1cccs1)NN=Cc1c[nH]c2ccccc12	0.65	7.2
COc1ccc(Br)cc1C(=O)NN=Cc1cccnc1	0.66	4.0
COc1ccc(C=NNC(=O)CCSc2nc3ccccc3s2)cc1	0.71	1.3
O=c1c2c(-c3cccs3)csc2ncn1N=Cc1ccccn1	0.68	3.8
CC(=NNC(=O)c1c[nH]c2ccccc12)c1ccccn1	0.59	4.4
COc1cc(C=NNC(=O)c2cccs2)ccc1O	0.7	3.7
Cc1ccc(NC(=O)CON=Cc2ccccc2C)c(C)c1	0.74	3.4
Cc1cccc(N2CN=c3sc(=Cc4ccncc4)c(=O)n3C2)c1	0.68	6.1
C=CCN1C(=O)C(CC(=O)O)SC1=NN=Cc1ccc(N(CC)CC)cc1 (stereo unspecified)	0.67	-193
O=C(NN=Cc1ccccc1)c1ccccc1-n1cccc1	0.62	1.8
CCc1c(C(=O)NN=Cc2sccc2C)nnn1-c1nonc1N	0.7	4.4
O=S1(=O)N=C(NN=Cc2ccccn2)c2ccccc21	0.66	4.3
NC(=O)C(=O)NN=Cc1c2ccccc2cc2ccccc12	0.71	-2.1
CCOC(=O)NN=C/C(Cl)=C/c1ccccc1	0.69	2.9
CSc1ccc(C=NNC(=O)CC(=O)NC(C)C)cc1	0.71	-11
CC(=NNC(=O)C1CCCN(S(=O)(=O)c2ccccc2)C1)c1cccnc1 (stereo unspecified)	0.71	2.0
CC(=NNC(=O)C(NC(=O)c1ccccc1)C(C)C)c1ccccc1 (stereo unspecified)	0.76	-1.3
COc1ccc(C(=O)Nc2cccc(C(C)=NNC(=O)c3ccc([N+](=O)[O-])cc3)c2)cc1OC	0.72	1.3
COC(=O)NN=Cc1ccc(-c2ccc(C)c(Cl)c2)o1	0.7	-1.1
COc1ccc(C(=O)NN=Cc2ccc(OC)c(CN3CCN(c4ccc(F)cc4)CC3)c2)cc1	0.7	2.0
COc1ccccc1N1CCN(N=Cc2ccc(C(=O)O)cc2)CC1	0.65	1.7
Cc1cc(C)nc(NN=Cc2c(CO)cnc(C)c2O)n1	0.72	-8.4
COc1cc(C=NNc2cc(=O)n(C)c(=O)n2C)ccc1O	0.67	11
COc1cccc(C=NNC(=O)c2ccc(-c3ccccc3)cc2)c1O	0.72	2.7
CC(=O)C(=NNc1ccccc1)Oc1ccc([N+](=O)[O-])cc1	0.67	5.6
Nc1nnc(CC(=O)NN=Cc2ccc(-c3ccc(Cl)cc3Cl)o2)s1	0.76	-7.6
COc1ccc2ccccc2c1C=NNc1ccc(Cl)c(C(=O)O)c1	0.61	-5.6
CC(=NNC(=O)CN1CCN(Cc2ccccc2)CC1)c1ccc([N+](=O)[O-])cc1	0.7	5.0
Oc1cccc(C=Nn2c(C3CCCCC3)n[nH]c2=S)c1	0.65	3.2
COc1ccc(C=NNC(=O)CSc2nnc(CCCc3ccc(OC)c(C)c3)o2)cc1	0.7	-0.4
Cn1cc(Cl)c(C(=O)NN=Cc2ccc3c4c(cccc24)CC3)n1	0.69	-20
CCOc1cccc(-c2c(C(=O)NN=Cc3c(F)cccc3Cl)nnn2-c2nonc2N)c1	0.65	0.7
O=C(NN=Cc1ccco1)c1ccc(Br)o1	0.71	8.2
C=CCNC(=S)NN=Cc1ccc(C)cc1C	0.67	3.0
Cn1c(=O)c2c(ncn2CC(=O)NN=C/C=C/c2ccccc2[N+](=O)[O-])n(C)c1=O	0.64	7.1
Continued.
SMILES	Ecoli growth	UCH37 DUB inh
CCCN(CCC)Cc1c(C(=O)NN=Cc2ccc(C)o2)nnn1-c1nonc1N	0.7	-16
CCN1C(=O)C(CC(=O)Nc2ccccc2)SC1=Nc1ccccn1 (stereo unspecified)	0.66	0.7
COc1ccc(C=NOCC(=O)N2CC3(C)CC2CC(C)(C)C3)cc1 (stereo unspecified)	0.67	2.2
Cc1ccc(C=NNC(=O)Cn2cnc3ccccc32)cc1	0.63	2.9
CCOc1ccccc1C=NNc1cnn(Cc2ccccc2)c(=O)c1Cl	0.75	-2.0
Cc1cc(C=NNC(=O)COc2cccc3cccnc23)c(C)n1-c1ccccc1	0.66	-1.4
CCOc1cc(C=NO)ccc1OCC(=O)Nc1cccc(C)c1	0.72	-0.1
COc1cccc(C=Nn2c(SC)nnc2-c2ccccc2)c1O	0.68	3.2
COC(=O)NN=C(C)c1cccs1	0.63	2.4
CC(Cc1ccccc1)=NNC(=O)CNC(=O)C(c1ccccc1)c1ccccc1	0.62	6.7
O=S(=O)(N=C(Nc1ccc(F)cc1)C(F)(F)F)c1ccccc1	0.69	0.0
CCn1c2ccccc2c2cc(C=NNC(=O)c3cccc(C)c3)ccc21	0.74	-16
Cc1[nH]n(-c2ccccc2)c(=O)c1C=NN1C(=O)c2ccc3c4c(ccc(c24)C1=O)CC3	0.61	0.0
CCN(CC)c1ccc(C=NNc2ccc(C)cc2)c(O)c1	0.67	5.8
CC(NC(=O)c1ccccc1)C(=O)NN=Cc1ccccc1 (stereo unspecified)	0.62	-2.2
CCN(CC)Cc1c(C(=O)NN=Cc2ccco2)nnn1-c1nonc1N	0.69	6.7
Oc1ccc(C=NNC2=NCCCCC2)c(O)c1	0.8	-25
COc1ccc2nc(N=C(N)NC(=O)C(C)(C)C)nc(C)c2c1	0.72	-82
CCOC(=O)c1c(N=CC2C(=O)CCCC2=O)sc2c1CCCC2	0.68	-8.7
CN(C)S(=O)(=O)c1ccc(-c2csc(NN=Cc3ccco3)n2)cc1	0.66	2.2
FC(F)(F)c1nc2ccccc2nc1NN=Cc1ccccc1	0.72	0.4
N#CC(=NNc1ccc(F)cc1)C(=N)N1CCCCC1	0.63	7.0
O=C(NN=Cc1cc2c(cc1Cl)OCO2)c1ccccn1	0.65	-7.5
COc1cc(C=NNC(=O)c2ccc(-c3ccccc3)cc2)ccc1OCC(N)=O	0.69	-34
CCOc1ccc(N2C(=O)CC(S/C(N)=N/N=Cc3cccs3)C2=O)cc1 (stereo unspecified)	0.67	7.3
CCOc1ccccc1NC(=O)C(=O)NN=Cc1ccc([N+](=O)[O-])cc1	0.73	12
Cn1cccc1C=Nn1c(-c2ccc(Cl)cc2Cl)n[nH]c1=S	0.8	4.6
Cc1cc[n+](-c2[nH]c(=O)sc2C=NNC([S-])=Nc2ccccc2)cc1	0.72	23*
COc1cc(OC)c(C=Nn2c(C3CCCCC3)n[nH]c2=S)c(OC)c1	0.7	4.8
CCCCNC(=S)N(C)N=Cc1ccc(OCC(=O)Nc2ccc(OC)cc2)c(OC)c1	0.7	6.1
Cn1c(=O)n(C)c2cc(C=NNC(N)=S)ccc21	0.66	5.0
CC(=O)C(=NNc1ccccc1)Sc1nnc(CCc2ccccc2)n1-c1ccccc1	0.68	7.2
Oc1ccccc1C=Nn1c(COc2ccccc2)n[nH]c1=S	0.67	1.3
O=C(NN=Cc1ccccc1OC(F)F)c1cc(-c2ccncc2)nc2ccccc12	0.67	0.2
CC1(C(=O)NCCCNc2ncc(C(F)(F)F)cc2Cl)C=CC2(CCCCC2)N1C(=O)c1ccccc1 (stereo unspecified)	0.7	1.0
CCOC(=O)Cc1csc(NN=Cc2ccc(N(C)C)cc2)n1	0.71	-5.5
COc1ccc(C=NNc2ccc([N+](=O)[O-])cc2S(=O)(=O)N2CCN(C)CC2)cc1	0.7	-2.3
O=C(NN=Cc1cccs1)c1sccc1-n1cccc1	0.71	7.5
Cn1c(SCC(=O)NN=C/C=C\c2ccccc2[N+](=O)[O-])nc2ccccc21	0.72	0.6
O=C(NN=Cc1cn[nH]c1-c1ccc(F)cc1)c1ccncc1	0.68	3.4
O=C(NN=Cc1ccc(O)cc1)c1[nH]c2ccc(Br)cc2c1-c1ccccc1	0.71	-81
O=C(NN=C/C(Cl)=C/c1ccccc1)c1ccccc1F	0.68	4.1
Nc1nonc1-n1nnc(C(=O)NN=Cc2ccc(OCc3ccccc3)cc2)c1CN1CCCCC1	0.72	3.1
O=[N+]([O-])c1ccccc1C=NNC1=NCCCCC1	0.7	6.6
COc1ccc(C=Nn2cnnc2SCc2ccccc2)cc1	0.76	5.7
O=C(CNc1cccc([N+](=O)[O-])c1)NN=Cc1ccc(F)cc1	0.68	3.4
O=C(O)CCC(=NNc1ccc(S(=O)(=O)N2CCCC2)cc1[N+](=O)[O-])c1cccs1	0.66	13
O=[N+]([O-])c1ccccc1NN=Cc1ccccc1F	0.69	6.7
CC(C)(C=NNC(=O)CSCc1ccc(Cl)cc1)CCC#N	0.72	-0.1
O=C(NCC1CCCO1)C(=O)NN=Cc1c(F)cccc1Cl (stereo unspecified)	0.68	3.2
C=CCc1cccc(C=NNC(=O)COc2ccc(-n3cnnn3)cc2)c1O	0.71	0.2
CCCCNC(=S)N(C)N=Cc1c(F)c(F)c(F)c(F)c1F	0.65	6.0
Cc1onc(-c2ccccc2)c1C(=O)NN=Cc1ccccc1OC(C)C	0.71	4.9
COc1ccc(C=NNC(=O)CCc2n[nH]c(=O)[nH]c2=O)cc1OC	0.69	3.5
CC(=NNC(=O)c1ccc(N2CCCC2=O)cc1)c1ccc(O)cc1O	0.67	-32
O=C(O)CCC(=NNC(=O)CNC(=O)C(c1ccccc1)c1ccccc1)c1ccccc1	0.7	2.8
CNC(=S)NN=C(C)c1ccc(-n2ccnc2)cc1	0.67	-3.2
O=C(NN=Cc1cccc(OC(=O)c2cccc(Br)c2)c1)c1cccnc1	0.71	1.3
O=c1[nH]c2ccccc2nc1C=C(O)C(F)F	0.61	-11
Cc1ccc2nc(NN=Cc3ccccc3C#N)nc(-c3ccccc3)c2c1	0.68	-79
C=CCN=c1scc(-c2ccc3c(c2)NC(=O)CO3)n1N=C(C)c1ccccn1	0.62	-6.9
Nc1nonc1-n1nnc(C(=O)NN=Cc2ccoc2)c1CSc1ccc(Cl)cc1	0.7	1.8
